Cruzain Triton: cruzain (T. cruzi) inhibition with detergent | purified cruzain, Z-FR-AMC fluorescence, 0.01% Triton | 200,000 compounds, 0.43% hits | Potency, µM, without a hit: max response, negative = inhibition, most hits filed as inhibitors;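 further: plate controls were neutral wells for no effect and buffer without enzyme for full effect; nearly all actives have a fitted effect of over 40% in size; top concentration of the series not given in the record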
Target sequence (P25779 123-467 limits assumed): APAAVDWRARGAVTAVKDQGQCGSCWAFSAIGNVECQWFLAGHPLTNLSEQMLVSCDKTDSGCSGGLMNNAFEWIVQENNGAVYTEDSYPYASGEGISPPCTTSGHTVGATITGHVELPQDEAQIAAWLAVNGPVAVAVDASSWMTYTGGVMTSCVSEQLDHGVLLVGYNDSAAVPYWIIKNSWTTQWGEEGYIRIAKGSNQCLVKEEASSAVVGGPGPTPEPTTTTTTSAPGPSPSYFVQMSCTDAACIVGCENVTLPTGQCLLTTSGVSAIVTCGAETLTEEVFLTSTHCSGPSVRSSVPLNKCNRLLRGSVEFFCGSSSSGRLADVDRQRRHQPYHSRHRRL
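In this qHTS format, compounds are incubated with 1.5 nM cruzain for 15 min at room temperature before 2 uM Z-FR-AMC is added. Release of AMC is followed at 360/450 nm, and progress is taken as the 60 s fluorescence difference.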
Cruzain noTriton: blocks cruzain activity in detergent-free assay. 200,000 compounds, 2.3% hits. Potency, µM, for the others: max response, negative = inhibition, hits mostly inhibitors. P25779. AID 1476. purified cruzain, Z-FR-AMC fluorescence, no detergent;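 further: plate controls were enzyme without inhibitor for no effect and buffer without enzyme for full effect; nearly all actives have a fitted effect of over 40% in size; top concentration of the series not given in the record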
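Detergent-free condition (0.00005% Triton X-100) in acetate buffer pH 5.5 with DTT. 1.5 nM enzyme and compound were pre-mixed 15 min, then 2 uM Z-FR-AMC substrate added; reaction progress from fluorescence change between first and third reads (60 s).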
Starred values were filed as active, the others as inactive; ? = inconclusive; & = joins results of further samples. The call rests on the fitted dose curve; in most records, active means well fitted curve in the direction sought with a large enough effect; inconclusive means small, poorly fitted or top-dose-only effect, or another doubt; inactive means no such curve, though single readings can be large; an effect the other way counts as inactive or inconclusive. Potency means the concentration at half of the fitted maximal effect. This is a subset; count on the stated rates, not on these rows.

SMILES	Cruzain Triton	Cruzain noTriton
CC1=C2[C@@H](O)[C@H]([C@@H](C)C(=O)NCCC(C)C)CC[C@@]2(C)C=CC1=O	0.9%	-1.1%
CCOC(=O)O[C@@H](C)OC(=O)[C@@H]1N2C(=O)[C@@H](NC(=O)[C@@H](N)c3ccccc3)[C@H]2SC1(C)C	-1.5%	-6.2%
NCCC[C@@H](CC(=O)N[C@@H]1CCCC[C@H]1C(=O)N[C@H](CC(=O)N[C@@H](CCC(=O)O)CC(=O)O)Cc1c[nH]c2ccccc12)NC(=O)C[C@H](Cc1c[nH]c2ccccc12)NC(=O)[C@@H]1CNCC[C@H]1N	1.5%	-2.3%
C/C=C1/C[C@@H](C)[C@](O)(CO)C(=O)OCC2=CCN3CC[C@@H](OC1=O)C23 (stereo partly drawn)	-2.7%	5.8%
CC(C)C1CCC(C(=O)NC(Cc2ccccc2)C(=O)O)CC1 (stereo not drawn)	-5.7%	?
CCN1CCCC1Cn1c(-c2ccccc2)nc2c(NC3CCCCC3)nc(C)nc21 (stereo not drawn)	-6.7%	1.2%
COC(=O)[C@@]1(Cc2ccc(OC)cc2)[C@H]2c3cc(C(=O)N4CCCC4)n(Cc4cc(F)c(F)c(F)c4)c3C[C@H]2CN1C(=O)c1ccccc1	-5.0%	?
CCCCN1CCCC[C@H]1C(=O)Nc1c(C)cccc1C	3.4%&-1.5%	-3.3%&-0.1%
COC(=O)[C@@]1(Cc2ccccc2)[C@H]2c3cc(C(=O)N4CCCC4)n(Cc4ccc(C)o4)c3C[C@H]2CN1C(=O)c1ccccc1	-3.9%	?
O=c1cc(-c2cccc(F)c2)[nH]c2cc(Cl)ccc12	-3.0%	3.3%
CCC1(c2ccccc2)C(=O)NC(=O)N(C)C1=O (stereo not drawn)	2.9%	-5.3%
C[C@@H]1C(=O)O[C@@H]2C[C@]34[C@H]5C[C@@H](C(C)(C)C)[C@@]36[C@@H](OC(=O)[C@@H]6O)O[C@@]4(C(=O)O5)[C@@]12O	-3.2%	0.7%
C[C@@H]1O[C@H](O[C@@H]2[C@@H](Oc3cc(O)c4c(c3)O[C@H](c3ccc(O)cc3)CC4=O)O[C@@H](CO)[C@@H](O)[C@H]2O)[C@@H](O)[C@H](O)[C@@H]1O	-4.0%	-2.5%
CCCC[C@@H]1C[C@H]1C(NC(=O)c1cccs1)c1ccc(C(F)(F)F)cc1 (stereo partly drawn)	-7.7%	-4.5%
COC(=O)[C@@]1(Cc2ccc(F)cc2)[C@H]2c3cc(C(=O)N(C)C)n(Cc4ccc(C(F)(F)F)nc4)c3C[C@H]2CN1C(=O)c1ccccc1	-5.5%	?
O=[N+]([O-])c1ccc(Cl)cc1Cl	4.0%	5.2%
N#CCCCS(=O)(=O)c1nc2ccccc2s1	1.0%	-0.9%
C=Cc1ccc(C=C)cc1	7.5%	14.5%
CN(C)C(=O)Nc1cccc(C(F)(F)F)c1	-7.5%	2.1%
CC(C)(C)CC(C)(C)c1ccc(OCOCCOCCO)c(Cc2cc(C(C)(C)CC(C)(C)C)cc(Cc3cc(C(C)(C)CC(C)(C)C)ccc3OCOCCOCCO)c2OCOCCOCCO)c1	1.0%	18.8%

Laid out differently: entries from further up.
> N#CCCCS(=O)(=O)c1nc2ccccc2s1
  Cruzain Triton: 1.0% | Cruzain noTriton: -0.9%

> C=Cc1ccc(C=C)cc1
  Cruzain Triton: 7.5% | Cruzain noTriton: 14.5%

> CN(C)C(=O)Nc1cccc(C(F)(F)F)c1
  Cruzain Triton: -7.5% | Cruzain noTriton: 2.1%

> CC(C)(C)CC(C)(C)c1ccc(OCOCCOCCO)c(Cc2cc(C(C)(C)CC(C)(C)C)cc(Cc3cc(C(C)(C)CC(C)(C)C)ccc3OCOCCOCCO)c2OCOCCOCCO)c1
  Cruzain Triton: 1.0% | Cruzain noTriton: 18.8%

Continued.
SMILES	Cruzain Triton	Cruzain noTriton
CCN(CC)CCOC(=O)[C@@H](c1ccccc1)C1CCCCC1	-5.2%	0.5%
CC1=C2[C@@H]3OC(=O)[C@@H](C)[C@@H]3CC[C@]2(C)C=CC1=O	-4.2%	-13.1%
CC[C@@H]1OC(=O)[C@@H](C)[C@H](O[C@H]2C[C@@](C)(OC)[C@@H](O)[C@H](C)O2)C(C)[C@H](O[C@H]2O[C@@H](C)C[C@@H](N(C)C)[C@@H]2O)[C@@](C)(O)C[C@H](C)C(=O)[C@@H](C)[C@H](O)[C@@]1(C)O (stereo partly drawn)	-0.8%	11.8%
CC12CC[C@@H]3c4ccc(OS(=O)(=O)O)cc4CC[C@H]3C1CCC2=O (stereo partly drawn)	-1.2%	-6.9%
CCOC(=O)CC(C(=O)OCC)C1CCCCC1=O (stereo not drawn)	3.4%	8.9%
COC(=O)[C@@H]1C[C@@]2(O)[C@H](O)[C@H](O)[C@H](O)C[C@H]2N1Cc1c(F)cccc1Cl	-5.7%	0.8%
CCc1c2c(nc3ccccc13)OC(C)C2 (stereo not drawn)	1.8%	-0.4%
CC(=O)N1CC[C@H]2CC(=O)CC[C@@]21C	8.7%	0.9%
Cc1ccc2oc(-c3ccccc3)cc(=O)c2c1	-3.3%	1.7%
C[C@]1(OC(=O)/C=C\c2ccccc2)C[C@@H](O)[C@@]2(O)C=CO[C@@H](O[C@H]3O[C@@H](CO)[C@@H](O)[C@@H](O)[C@@H]3O)[C@H]21	0.0%	-10.5%
CCCCC/C=C\C/C=C\CC1OC1C/C=C\CCCC(=O)O (stereo not drawn)	0.2%	1.7%
O=C1C2CCC(C2)[C@@H]2CCCCN12 (stereo partly drawn)	3.4%	4.9%
CC[C@H]1C(c2cccc(C)c2)=NN(c2ccccc2)[C@@H]1CO	-1.8%	-23.4%
CN[C@H]1[C@H](O)[C@@H](O[C@@H]2[C@H](O)[C@@H](O[C@H]3OC(CN)=CC[C@H]3N)[C@@H](N)C[C@H]2N)OC[C@@]1(C)O	-0.1%	-3.0%
O=c1cccc2n1CC1CC2CN(CCO)C1 (stereo not drawn)	0.6%	-1.1%
COc1ccc2oc(-c3ccccc3)c(OC)c(=O)c2c1	-0.9%	-2.2%
CC(=O)c1ccsc1B(O)O	0.8%	-2.2%
CCCCNc1nc(C)nc2c1nc(-c1ccccc1)n2C1CCN(Cc2ccccc2)C1 (stereo not drawn)	3.9%	-3.0%
COC(=O)[C@@]1(Cc2ccccc2)[C@H]2c3cc(C(=O)N(C)C)n(Cc4ccc(S(C)(=O)=O)cc4)c3C[C@H]2CN1C(=O)c1ccccc1	-3.0%	?
CCCn1c(-c2ccc(F)cc2)nc2c(NCCN3CCCCC3)nc(C)nc21	2.2%	-5.8%

Random excerpt: three compounds from above.
SMILES	Cruzain Triton	Cruzain noTriton
CCCn1c(-c2ccc(F)cc2)nc2c(NCCN3CCCCC3)nc(C)nc21	2.2%	-5.8%
COc1ccc2oc(-c3ccccc3)c(OC)c(=O)c2c1	-0.9%	-2.2%
O=c1cccc2n1CC1CC2CN(CCO)C1 (stereo not drawn)	0.6%	-1.1%

Further structures:
SMILES	Cruzain Triton	Cruzain noTriton
CCCCc1c(O)n(-c2ccccc2)[nH]c1=O	-0.4%	5.1%
CC/C=C\C/C=C\C/C=C\C/C=C\C/C=C\CCCC(=O)NCC(=O)O	2.5%	-7.6%
C=CCOC(C)=O	4.3%	0.4%
CCCCC[C@H](O)/C=C/C=C\C/C=C\CCCCCCC(=O)O	-1.7%	-0.9%
COC(=O)c1ccc(C(/C=C/[C@@H](C)C(=O)NCc2ccc(OC)c(O)c2)NC(=O)OCc2ccccc2)cc1 (stereo partly drawn)	3.3%	?
O=C1C[C@H](c2ccccc2)Oc2cc(O)cc(O)c21	-7.1%	2.0%
Cc1ccc(C#N)cc1	0.8%	-0.7%
CC(=O)O[C@H]1CC[C@@]2(C)C(=CC[C@@H]3[C@H]2CC[C@]2(C)C(=O)CC[C@H]32)C1	-8.1%	-8.8%
CCCC1(C(=O)OC)C=C2C(=C(C)C(=O)C2C)CN1 (stereo not drawn)	1.7%	-5.5%
OCC1O[C@H](Oc2ccc(O)cc2)C(O)C(O)C1O (stereo partly drawn)	2.7%	3.4%
O=S(=O)(Cc1ccccc1)c1nnnn1-c1ccccc1	0.8%	-4.7%
COC(=O)[C@@H](NC(=O)O[C@@H]1C(=O)c2cc(OC)ccc2O[C@H]1c1ccc(OC)c(Br)c1)C(C)C	-2.6%	-3.6%
Cc1cc2nc3c(=O)[nH]c(=O)nc-3n(C[C@H](O)[C@H](O)[C@H](O)CO)c2cc1C	-7.6%	-7.8%
C#CCCCC(=O)Nc1ccccc1	1.9%	-2.2%
CCC1=C2CC[C@H]3C(=O)N(C)C(=O)[C@H]3[C@H]2[C@@]2(C)C(=NCc3ccccc3)OC(=O)N2C1=O	-1.8%	-5.2%
COC(=O)[C@@]1(Cc2ccc(OC)cc2)[C@H]2c3cc(C(=O)N4CCCC4)n(C[C@H](O)CO)c3C[C@H]2CN1C(=O)c1ccccc1	4.9%	?
COc1cc2cc3c4c(cc(OC)c(OC)c4c2cc1OC)CCN3C	-3.4%	?
CC(C)C[C@@H](CC(=O)N[C@@H](CCCN)CC(=O)N[C@@H]1CCNC[C@H]1C(=O)N[C@H](CC(=O)N[C@@H](CCC(=O)O)CC(=O)O)Cc1c[nH]c2ccccc12)NC(=O)[C@@H]1CCCC[C@H]1N	4.7%	-8.6%
Cc1ccc(S(=O)(=O)O)cc1C	-3.8%	-4.1%
CC1(C)S[C@@H]2[C@H](NC(=O)COc3ccccc3)C(=O)N2[C@H]1C(=O)O	3.6%	0.2%
CC(=O)OC(C)C	-5.8%	-4.0%
Nn1cnnc1	1.7%	-1.3%
COC(=O)[C@@]1(Cc2ccc(OC)cc2)[C@@H]2[C@@H](CC(=O)[C@H]2CC(=O)C(=O)N2CCCC2)CN1C(=O)c1ccccc1	0.7%	?
CC(=O)OC1CC(C)OC(C)O1 (stereo not drawn)	-6.3%	-0.6%
CC(=O)OC1CC2CCC1(C)C2(C)C (stereo not drawn)	2.0%	-2.6%
C[C@]12C[C@@](C)(C=C1/C=C/c1ccc(F)cc1)C(=O)C[C@H]2c1ccc(F)cc1	2.3%	21.3%
C=C/C1=C/Cc2ccccc2[C@H](C[N+](=O)[O-])C(C(=O)OC)(C(=O)OC)C1	2.7%	-11.2%
CC(C)[C@H](O)C1=CCCCC1=O	-1.0%	0.4%
CCCCC/C=C\C/C=C\C/C=C\C/C=C\CCCCOC(CO)CO	1.0%	?
O=[N+]([O-])c1c(Cl)c(Cl)cc(Cl)c1Cl	-8.9%	-0.2%
CCCn1c(C)nc2c(N3CCC(N(C)C)C3)nc(C)nc21 (stereo not drawn)	-2.5%	-5.2%
COC(=O)C/C=C1\c2ccc3c(c2[C@@H](OC)[C@@H]1C)OCO3	1.8%	-4.4%
COc1ccccc1C1CC(=O)Oc2cc3c(cc21)OCO3 (stereo not drawn)	-12.1%	16.5%
COC(=O)[C@@]1(Cc2ccc(OC)cc2)[C@H]2c3cc(C(=O)N(C)C)n(CCc4ccccn4)c3C[C@H]2CN1C(=O)c1ccccc1	0.2%	?
CCCC[C@@H]1C[C@H]1C(NC(=O)c1ccc(-c2ccccc2)cc1)c1ccc(-c2ccccc2)cc1 (stereo partly drawn)	-1.0%	?
O=C(O)c1cccc(Cl)c1Cl	6.2%	3.7%
Cc1cc2ccc(=O)oc2cc1OC[C@@H](O)C(C)(C)O	-15.7%	39.8µM*
CCCn1c(-c2ccc(F)cc2)nc2c(N3CCN(CCn4ccnc4)CC3)nc(C)nc21	0.0%	1.7%
CC1(OC(=O)c2cccs2)C(=O)C=C2C=C(c3ccc(C#N)cc3)OC=C2C1=O (stereo not drawn)	-2.6%&10.1%	-9.8%&3.5%
Nc1nc(=S)c2ncn([C@H]3O[C@@H](CO)[C@@H](O)[C@@H]3O)c2[nH]1	-2.8%	-6.9%
COC(=O)c1ccc(C(NC(=O)OCc2ccccc2)/C(=C/[C@@H](C)C(=O)NCc2ccncc2)c2cccnc2)cc1 (stereo partly drawn)	1.2%	12.1%
CCCCCCCCCCCCC/C=C/[C@@H](O)[C@H](COP(=O)([O-])OCC[N+](C)(C)C)NC(=O)CCCCCCCCCCCCCCCCC	2.7%	1.1%
CC1=C(C2=C(C)C(C(C)C)C3=C(C(=O)C(O)C3O)C2O)C(O)C2=C(C(O)C(O)C2=O)C1C(C)C (stereo not drawn)	-6.7%	-6.0%
CCCCNc1nc(C)nc2c1nc(-c1ccccc1)n2CCCCN(CC)CC	-9.6%	3.8%
COC(=O)C1(C)C=C2C(=C(c3ccccc3)C(=O)C2C)CN1 (stereo not drawn)	-1.4%	-0.5%
COc1ccccc1-c1oc2ccccc2c(=O)c1OC	-0.3%	6.6%
C[C@@]1(C(NC(=O)c2ccccc2)c2ccc(-c3ccccc3)cc2)C[C@H]1C1CCCCC1 (stereo partly drawn)	-2.9%	10µM*
COC(=O)c1ccc(C(NC(=O)OCc2ccccc2)/C(I)=C/[C@@H](C)C(=O)NCc2ccc(C)o2)cc1 (stereo partly drawn)	-10.3%	10.6%
O=C(O)c1ccc(-c2ccccc2C(F)(F)F)s1	3.8%	-7.7%

Source: PubChem BioAssay (National Center for Advancing Translational Sciences (NCATS))
